# Source: PubChem BioAssay
# HPGD inh – blocks human HPGD enzyme activity; P15428; purified HPGD, NADH fluorescence kinetic, PGE2 substrate; Potency, µM, for inactives: at the top dose activity change, negative = inhibition, most hits filed as inhibitors; 4.3% of 150,000 active; AID 894; active = well fitted inhibition curve with a large enough effect (not every such curve was filed as active); inconclusive = small, poorly fitted or top-dose-only effect, or another doubt; inactive = no such curve, though single readings can be large or run the other way;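 note: top concentration of the series not given in the record; plate controls included wells without enzyme; inactives centre near -10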
# Target sequence (P15428 whole entry, looked up): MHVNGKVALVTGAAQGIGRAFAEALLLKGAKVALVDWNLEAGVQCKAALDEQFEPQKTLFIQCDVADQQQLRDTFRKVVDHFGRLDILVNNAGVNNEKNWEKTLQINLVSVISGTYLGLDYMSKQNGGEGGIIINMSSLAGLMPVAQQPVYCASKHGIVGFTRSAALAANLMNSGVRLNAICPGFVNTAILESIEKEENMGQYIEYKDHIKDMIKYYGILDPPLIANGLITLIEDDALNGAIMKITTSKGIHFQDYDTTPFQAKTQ
#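 NADH formation kinetics: reaction with 30 uM PGE2 and 1 mM NAD+ (final), 20 nM enzyme, Tris-HCl pH 8 with Tween 20, after 15 min compound preincubation at room temperature. Fluorescence change, last versus first of five reads.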
# The depositor's hits bear a star; ? = inconclusive; & = joins results of further samples. % is set by controls: 0 for no effect and ±100 for the full control effect; potency is the fitted concentration of half-maximal effect. An excerpt; count on the stated rates, not on these rows.
Molecule,HPGD inh
Cc1ccc(NC(=O)c2ccc(OC(=O)COc3ccc(Cl)c(C)c3)cc2)cc1,-5%
COc1ccc2cc(C#N)c(N3CCN(Cc4nnnn4CCC(C)C)CC3)nc2c1,-29%
CC(C)OC(=O)CSc1nc2ccccc2s1,16µM*
COc1cc(OC)c(C2=NOC(C(=O)NCc3ccc4c(c3)OCO4)C2)cc1Cl (stereo not drawn),?
COCCNC(=O)C1CC(c2cccc(OC)c2)=NO1 (stereo not drawn),-6%
Cc1ccc2oc(-c3ccccc3)nc2c1,?
CCCOc1ccccc1C1CC(=O)Nc2cc3c(cc21)OCO3 (stereo not drawn),-3%
O=C(NCC1OCCc2ccccc21)c1ccc(NC(=O)c2ccccc2Cl)cc1 (stereo not drawn),-3%
CCN(CC)S(=O)(=O)c1ccc(N2CCOCC2)c(NC(=O)c2cccc3ccccc23)c1,-18%
COc1ccccc1CNc1ccnc(-c2ccccc2C(F)(F)F)n1,-11%
CCOC(=O)CNC(=O)c1cc(C)oc1C,-12%
O=C(CNc1ccccc1)Nc1ccc(F)cc1,-16%
Cc1[nH]n(C(N)=S)c(=O)c1N=Nc1ccc(S(=O)(=O)N2CCCC2)cc1,-30%
Nc1ccn([C@H]2O[C@@H](COP(=O)(O)O)[C@@H](O)[C@H]2O)c(=O)n1,-1%
Cc1[nH]n(-c2ccc([N+](=O)[O-])cc2)c(=O)c1C=NCCN1CCN(C(=O)c2ccccc2F)CC1,-21%
COc1cc(NC(=O)COc2cccc(OC)c2)cc(OC)c1,-14%
CN(C(=O)/C=C/c1ccccc1)C1CCS(=O)(=O)C1 (stereo not drawn),-5%
Cc1occc1C(=O)NCc1ccccn1,-14%
CCOC(=O)c1cc(C)sc1/N=C/C1C(=O)CC(C)(C)CC1=O,-2%
COc1ccccc1NC(=O)Cc1coc2cc(C)ccc12,-29%
O=C(Nc1cccc(C(F)(F)F)c1)C12CC3CC(CC(C3)C1)C2,-19%
COc1ccc(C(=O)CCNc2ccc(C)c(Cl)c2)cc1,0%
O=C(COC(=O)C1CC1)Nc1ccc(Oc2ccccc2)cc1,-12%
CCOC(=O)C1CCN(C(=O)CN(c2cccc(C(F)(F)F)c2)S(C)(=O)=O)CC1,-2%
CCOC(=O)C1=C(C)N=C2c3ccccc3C(=O)C2C1c1ccc(C)cc1 (stereo not drawn),-17%
Nn1c(SCC(=O)Nc2ccccc2F)nnc1-c1cccnc1,-7%
CCOC(O)[C@H]1N[C@@H](c2ccc(Cl)cc2)[C@@H]([N+](=O)[O-])[C@@H]1c1ccccc1 (stereo partly drawn),-3%
CCOC(=O)N1CCN(C(=O)c2cccc(NC3=NC4CS(=O)(=O)CC4S3)c2)CC1 (stereo not drawn),-9%
Cc1ccc(C(=O)N2CCN(c3ccc(Cl)cc3)CC2)cc1,-1%
O=C(COC(=O)C1CCC(=O)N1)Nc1ccc(Br)cc1 (stereo not drawn),-6%
CC1(C)COC(c2cccn2Cc2ccc(F)cc2Cl)=N1,-7%
Cn1cnc([N+](=O)[O-])c1S(=O)(=O)c1cccc(Cl)c1,-10%
CCC(c1nnnn1CCOC)N1CCN(Cc2ccccc2OC)CC1 (stereo not drawn),-2%
Cc1ccc(CNCC(O)(c2ccccc2)c2ccc(F)cc2)cc1 (stereo not drawn),-22%
CC1CCc2nc(NCCO)nc(C(F)(F)F)c2C1 (stereo not drawn),-10%
O=C(N/N=C/c1cccnc1)/C(=C\c1cccs1)NC(=O)c1ccccc1,-17%
Cc1cc(N2C(=O)C3C4CC(C(Br)C4Br)C3C2=O)no1 (stereo not drawn),-10%
Cn1c(SCC(=O)N2CCc3ccccc32)nnc1C1CC1,2%
CCNc1nc(NC(C)(C)C)nc(SC(C(C)=O)C(C)=O)n1,-4%
COc1cc(/C=N/OCC(=O)Nc2ccc(OC(F)F)cc2)ccc1OCc1ccccc1,-14%
COc1ccc(-c2nc(CS(=O)CC(=O)NCc3ccc(Cl)cc3)c(C)o2)cc1 (stereo not drawn),-8%
COc1ccc(NC2=NCC(=O)N2Cc2cccs2)cc1,-8%
CC(C)=CCOc1ccc(/C=C/C(=O)c2ccc(OCC=C(C)C)cc2OCC(=O)O)cc1,11µM*
COc1ccc(S(=O)(=O)N(C)C)cc1NC(=O)[C@H](Cc1ccccc1)N1C(=O)c2ccccc2C1=O,-1%
CCN(C(C)=O)c1cccc2ccccc12,-4%
Cc1cc(C)cc(NC(=O)C2CCN(S(=O)(=O)c3c(C)n[nH]c3C)CC2)c1,4%
CC(C)Cc1ccc(C(C)C(=O)Nc2nccs2)cc1 (stereo not drawn),-16%
Nc1cc(N)nc(SCC(=O)N2CCc3ccccc32)n1,-2%
O=C(O)C1=CC(=C(c2ccc(O)c(C(=O)O)c2)c2ccc(O)c(C(=O)O)c2)C=CC1=O,?
O=C(NCCCCNC(=O)c1cccs1)c1cccs1,-14%
CC1Cc2ccccc2N1C(=O)CN1C(=O)C(=O)N(Cc2ccccc2)C1=O (stereo not drawn),-21%
Cc1cc(N2CCN(C(c3ccccc3)c3ccccc3)CC2)n2ncnc2n1,-2%
COCn1c(COc2ccccc2)nc2ccccc21,-10%
Cc1c(C(=O)Nc2cccc(Cl)c2)c2ccccn2c1CCc1ccncc1,?
O=C(N/N=C/c1c[nH]c2ccccc12)c1cc(-c2ccccc2)n[nH]1,-20%
CCCCNc1nc(-c2ccccc2)cc(C(F)(F)F)c1C(N)=O,?
CCOc1cccc(/C(O)=C2/C(=O)C(=O)N(CCOC)C2c2ccco2)c1 (stereo not drawn),-22%
O=C(NCC1CCCO1)c1cccc(NC(=O)c2ccco2)c1 (stereo not drawn),-12%
O=c1cc(CNCCCO)c2ccccc2[nH]1,-19%
CCCn1c(CN2CCN(C)CC2)nc2ccccc21,-13%

# (continued)
Molecule,HPGD inh
Nn1c(=O)c2ccccc2n2c(SCc3ccccc3)nnc12,-11%
O=C(OCc1nnc(-c2ccccc2)o1)c1cc(S(=O)(=O)N2CCOCC2)c(Cl)cc1Cl,7.9µM*
COc1ccc(-c2nnc(NC(=O)C3=COCCO3)o2)cc1,-15%
O=P(O)(O)COc1ccccc1P(=O)(c1ccccc1)c1ccccc1,-4%
CCSc1nnc(NC(=O)Cc2cccc(OC)c2)s1,-1%
COC(=O)CN(c1cc(C(F)(F)F)ccc1Cl)S(C)(=O)=O,-6%
[O-]/[N+](=C\c1ccc(F)cc1)c1ccccc1,-7%
CC(C)(C)C(=O)OCOC(=O)[C@@H]1N2C(=O)[C@@H](N=CN3CCCCCC3)[C@H]2SC1(C)C,-4%
CC1CCN(S(=O)(=O)c2ccc(Cl)cc2Br)CC1,?
Cc1ccc(C(=O)Nc2ncc(C)s2)o1,-8%
CC(=O)OC1CC[C@]2(C)C(CC[C@@]3(C)C2C(=O)C=C2C4C(C)C(C)CC[C@@]4(C(=O)O)CCC23C)C1(C)C (stereo partly drawn),0%
NCCS(=O)O,-6%&1%
CCCCSc1cnn(-c2ccccc2)c(=O)c1SCCCC,-9%
O=C(NC1CCCCC1)C(c1cccnc1)N(C(=O)CCl)c1ccccc1Cl (stereo not drawn),-5%
Cc1nc(NC2CCCCC2)c2nc(-c3ccccc3)n(CCN3CCCC3)c2n1,?
CC(=O)Nc1ccc(S(=O)(=O)NC2=NCN(CCOC(=O)c3ccccc3)CN2)cc1,2%
O=C(CN(C(=O)CCC(=O)Nc1nccs1)c1ccc(F)c(Cl)c1)NCc1ccco1,-10%
Cc1c(Br)ccc(NC(=O)CCN2C(=O)C3C4CCC(C4)C3C2=O)c1C (stereo not drawn),3%
Nc1ncnc(Nc2cccc(C(F)(F)F)c2)n1,-6%
O=C(NC1CC1)c1ccc(COc2ccc(F)cc2)o1,-17%
CC(C)Sc1nnc(Cn2c(=O)sc3ccccc32)n1-c1ccccc1,-11%
Cc1nn(Cc2c(F)c(F)c(F)c(F)c2F)c(C)c1NC(=O)c1ccc(COc2ccc(Cl)cc2Cl)o1,-21%
COc1ccccc1NC(=O)Cc1noc(CSc2nnc(C)s2)n1,-5%
COCCNC(=O)C(c1cccs1)N(Cc1ccccc1)C(=O)Cn1nnc2ccccc21 (stereo not drawn),-2%
CCN1CCN(CC(=O)Nc2c(C(=O)OC)[nH]c3cccc(Cl)c23)CC1,-8%
N#CC1=C(N)Oc2nc(-c3ccccc3)[nH]c2C1c1cccnc1 (stereo not drawn),-7%
CCCOc1ccc(C(=O)NC(=S)Nc2nc3ccc(C)cc3s2)cc1,0%
Cc1ccc(C(=O)CN2CCC(NC(=O)C3CCCCC3)CC2)cc1,-10%
CCN(C(=O)CCC(=O)N(CC)c1ccccc1)c1ccccc1,-13%
COc1ccc(C2CC(C(F)(F)F)n3nc(CO)c(Cl)c3N2)cc1OC (stereo not drawn),-3%

# Molecules above that contain a tert-butyl group:
Molecule,HPGD inh
CCNc1nc(NC(C)(C)C)nc(SC(C(C)=O)C(C)=O)n1,-4%
CC(C)(C)C(=O)OCOC(=O)[C@@H]1N2C(=O)[C@@H](N=CN3CCCCCC3)[C@H]2SC1(C)C,-4%

# Further records.
Molecule,HPGD inh
CCN(CC)CCc1nc(-c2ccccc2)no1,-3%
CCCn1nnc(NCc2ccc(OCc3cccs3)c(OC)c2)n1,-18%
Cc1ccc(-c2csc(N/N=C/C=C/c3ccccc3)n2)cc1,-26%
CCC(Oc1ccccc1)C(=O)Nc1ccccc1OC (stereo not drawn),-8%
CC1=NN(C(=O)c2ccc(Cn3nc(C)c(Br)c3C)cc2)C(O)(C(F)(F)F)C1 (stereo not drawn),-5%
O=C(NCCc1ccc2c(c1)OCCO2)c1cc2ccccc2o1,-14%
COc1ccc(-n2c(/C=C(\C)O)nc(=O)c3c(C)cc(C)nc32)cc1,-15%
Cc1nc2ccccc2nc1N1CCOCC1,-19%
Cc1ccccc1Nc1nc2nonc2nc1N1CCOCC1,-7%
COc1ccc(-c2[nH]n(-c3ccc([N+](=O)[O-])cc3)c(=O)c2C=NCc2ccccc2)cc1,-10%
O=C(CN1CCN(c2ccccc2)CC1)NC(=O)NCc1ccco1,-14%
Cc1c(Br)c([N+](=O)[O-])nn1CC(=O)Nc1c(C)n(C)n(-c2ccccc2)c1=O,-13%
COc1ccc(NC(=O)CN2CCC(C)CC2)c([N+](=O)[O-])c1,-9%
COc1cccc(CNc2nc3ccccc3n2CCN2CCCCC2)c1OC,-11%
O=C(Nc1ccccc1)/C(=C/c1cccnc1)NC(=O)c1ccco1,0%
COc1ccc(NC(=O)Nc2ccccc2C(N)=O)cc1OC,-9%
O=C(Nc1ccc2snnc2c1)N1CCN(c2ccccc2)CC1,-18%
CCC(CC)C(=O)Nc1cc(OC)c(OC)cc1C(=O)O,-11%
Cc1nnc(NC(=O)CSc2nnc(CNC(=O)C34CC5CC(CC(C5)C3)C4)n2C2CCCCC2)s1,-3%
COc1cc(NS(C)(=O)=O)c(OC)cc1NC(=O)c1cccc(F)c1,-4%
COc1cc(O)c(C(=O)c2ccccc2)cc1O,4.5µM*
O=C(OCn1nnc2ccccc2c1=O)c1ccc(N2CCOCC2)c([N+](=O)[O-])c1,-21%
Cc1cccc(OCc2nc(-c3nonc3N)no2)c1C,-12%
O=C(NCCN1C(=O)C2C3C=CC(C3)C2C1=O)N1CCCCC1 (stereo not drawn),-18%
CN(C)S(=O)(=O)N1CCN(S(=O)(=O)N(C)C)CC1,-4%
CCOc1ccc(S(=O)(=O)Nc2cccc(OC)c2)cc1,?
CCn1c(C(C)NC(=O)c2cccs2)n[nH]c1=S (stereo not drawn),-11%
COc1ccc(OC)c(C(O)c2coc3ccc(O)c(CN4CCOCC4)c23)c1 (stereo not drawn),-12%
Cc1cc(C(=O)OCC(=O)NCc2ccco2)c(C)n1-c1ccccc1,-23%
C=C(C)COc1ccc(-c2[nH]ncc2-c2ccc(Br)cc2)c(O)c1,-19%

# Next section, overlapping the part above by three compounds.
Molecule,HPGD inh
COc1ccc(OC)c(C(O)c2coc3ccc(O)c(CN4CCOCC4)c23)c1 (stereo not drawn),-12%
Cc1cc(C(=O)OCC(=O)NCc2ccco2)c(C)n1-c1ccccc1,-23%
C=C(C)COc1ccc(-c2[nH]ncc2-c2ccc(Br)cc2)c(O)c1,-19%
Cc1cccc(NC2=CC(=O)OC(C)C2)c1 (stereo not drawn),-3%
COC(=O)[C@@]1(Cc2ccc(F)cc2)[C@@H]2[C@@H](CC(=O)[C@H]2CC(=O)C(=O)N(C)C)CN1C(=O)c1ccccc1,-2%&-7%
Nc1nc(NCC2CCCO2)nc(Nc2ccc(F)cc2)c1[N+](=O)[O-] (stereo not drawn),-16%
CCN(C1CCCCC1)S(=O)(=O)c1ccc(OC)c(C)c1,-12%
CC(OC(=O)c1ccccc1NCc1ccco1)C(=O)Nc1ncc(Cl)cc1Cl (stereo not drawn),?
Cc1cc(C)nc(NC2=NC3CCCCC3N2)n1 (stereo not drawn),-6%
O=C(Nc1ccccn1)C1CCN(S(=O)(=O)c2cccc3nonc23)CC1,-16%
Cc1ccc(-c2csc3nc(=O)c(C)nn23)cc1,-17%
O=C(c1ccc(F)cc1)C1CCN(C(=O)c2ccncc2)CC1,-7%
Nc1c(C(=O)NCc2ccccc2)nnn1Cc1ccc(F)cc1,-15%
